High-throughput results (PubChem BioAssay)
T cruzi inh – T. cruzi replication inhibition. T. cruzi beta-gal in NIH3T3, luminescence, 90 h. inhibition, % (no concentration beside the values). 300,000 compounds, 1.4% hits. AID 1885;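 active = mean inhibition across valid replicates above about 55%, limit read from the data; inconclusive = mean below that limit but half or more replicates reach it; inactive = mean below it, under half of replicates reach it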;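 also: signal also drops with host cell toxicity which is not excluded here; 0% = plate median of DMSO wells and 100% = zero luminescence signal; higher percent means less beta-gal luminescence so fewer parasites; stock transfer was 50 nL into about 50 µL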
rRNA inh HTS – selective bacterial rRNA inhibition in E. coli. 350,000 compounds, 1.6% hits. GFP signal change (wild-type ribosome), % (test concentration not listed). E. coli WT GFP vs humanized-ribosome RFP mutants, fluorescence, 24 h; hits give low values; DMSO median 0, no signal -100;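 active = significant combined selectivity score with lowered wild-type GFP, culture density cut under 30%, mutant RFP and density less affected; inactive = any of these conditions unmet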; also: one replicate is shown; some compounds called inactive have numbers as strong as hits
RanGTP-Imp inh – disruptors of Ran-importin-beta complex formation – biochemical, FRET, CFP-Ran, YFP-importin-beta, homogeneous, primary screen. inhibition, % (no concentration beside the values). AID 2216. cell-free CFP-Ran/YFP-importin-beta FRET ratio. 300,000 compounds, 1.1% hits;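 active = most replicates above 15%; inconclusive = exactly half above 15%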;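 also: 0% = DMSO wells and 100% = Ran loaded with GDP instead of GTP; wells of about 40 µL received 100 nL stock; the first replicate is given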
AF4-AF9 inh – blocks AF4 peptide binding to human AF9. AlphaScreen, biotin-AF4 peptide binding to FLAG-AF9. inhibition, % at 10 µM. 350,000 compounds, 0.47% hits. AID 651704;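 active = every replicate reaching a set inhibition limit, whatever the replicate mean, cut at about 25% in these data; inconclusive = mean inhibition reaches that limit but some replicates miss it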;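 also: 0% = plate neutral control median and 100% = total signal loss; the record names both 10 and 1 µM as test concentration; the first replicate is given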
Target sequence (P42568 whole entry, looked up): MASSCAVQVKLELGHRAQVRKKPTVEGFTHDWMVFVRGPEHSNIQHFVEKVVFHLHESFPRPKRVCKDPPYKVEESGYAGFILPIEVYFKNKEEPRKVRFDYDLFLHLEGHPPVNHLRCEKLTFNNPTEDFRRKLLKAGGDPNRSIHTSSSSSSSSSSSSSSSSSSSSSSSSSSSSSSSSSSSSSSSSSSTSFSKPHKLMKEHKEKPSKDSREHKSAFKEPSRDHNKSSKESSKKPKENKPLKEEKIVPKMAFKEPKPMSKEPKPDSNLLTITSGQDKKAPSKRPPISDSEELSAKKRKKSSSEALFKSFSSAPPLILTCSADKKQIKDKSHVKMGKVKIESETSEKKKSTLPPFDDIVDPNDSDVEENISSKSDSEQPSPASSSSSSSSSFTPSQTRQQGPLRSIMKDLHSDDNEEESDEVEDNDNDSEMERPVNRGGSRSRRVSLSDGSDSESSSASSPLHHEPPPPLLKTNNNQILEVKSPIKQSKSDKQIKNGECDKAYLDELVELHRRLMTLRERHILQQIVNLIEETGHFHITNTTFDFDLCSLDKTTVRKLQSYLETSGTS
A1 inh – inhibitors of the anti-apoptotic protein A1, read as caspase activation; MEF A1-2A-BIM cells, Caspase-Glo 3/7 luminescence, 3 h; percent of clofoctol response, vehicle zero; caspase activation, % (test concentration not listed); 330,000 compounds, 0.066% hits; AID 2462;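 active = over half of replicate activation scores above 10%, or exactly half above 10 with the replicate mean above 10; inconclusive = replicate mean below 10 yet half the replicates above 10; inactive = over half of replicates below 10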;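 also: wells of about 30 µL received 50 nL stock; many hits fall short of the cut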
Vif A3G – inhibitors of Vif binding to APOBEC3G peptide, primary screen, biochemical, TR-FRET, GST-Vif 1-94, biotin-A3G peptide, dose response retest (AID 1117319) | TR-FRET GST-Vif / biotin-A3G peptide binding; higher % means a stronger effect; test concentration not given here; strong numbers were not always called active | 260,000 compounds, 0.57% hits | one-dose inhibition, %; IC50 in µM for titrated hits;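 active = above the screen mean plus three standard deviations and confirmed in dose response; inconclusive = results disagree or hit not tested in dose response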;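 also: Vif residues 1-94 fused to GST binding biotinylated APOBEC3G peptide 110-148; 0% = full assay without inhibitor and 100% = GST in place of GST-Vif; retest series ran down from 100 µM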
Calb FLC – affects C. albicans growth with fluconazole; C. albicans CaCi-2 (fluconazole-resistant clinical isolate) + fluconazole, Alamar Blue growth, 48 h; growth inhibition, % (no concentration beside the values); 300,000 compounds, 0.57% hits; AID 1979;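 active = most replicates above 75%; inconclusive = exactly half above 75%; inactive = most below 75%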;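 also: all wells also contain fluconazole at 8 µg/ml as a sub-toxic cotreatment; 0% = median of DMSO wells and 100% = median of geldanamycin control wells; wells of about 8 µL received 7.5 nL stock; the first replicate is given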
Beta cell apopt – beta cell apoptosis inhibition | protection from apoptosis, % (concentration not given with the values) | INS-1E cytokine-induced death, ATP luminescence, 48 h; percent of positive-control rescue, neutral wells zero | 300,000 compounds, 0.8% hits | AID 435005;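 active = all replicates at 75% or more, or half of them and the mean; inconclusive = half reach 75% but not the mean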;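 also: 0% = cytokine-treated negative control wells and 100% = positive control rescue; higher means more ATP so stronger rescue from cytokine killing; wells of about 40 µL received 100 nL stock; the first replicate is given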
rRNA inh HTS OD600 – recorded beside rRNA inh HTS, whose call it bears; OD600 change, %; measured here: OD600 growth;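 optical density of the mix in the first replicate; 0 = DMSO median and -100 = no signal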
rRNA inh HTS RFP – recorded beside rRNA inh HTS, whose call it bears; RFP signal change, %; measured here: RFP humanized mutant strains;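 first replicate; 0 = DMSO median and -100 = no signal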
* = called active by the depositor; ? = inconclusive; . = not tested or not shown; & = joins results of further samples. This is a subset; count on the stated rates, not on these rows.

SMILES | T cruzi inh | rRNA inh HTS | rRNA inh HTS OD600 | rRNA inh HTS RFP | RanGTP-Imp inh | AF4-AF9 inh | A1 inh | Vif A3G | Calb FLC | Beta cell apopt
Cc1ccc(/C=C2\SC(=S)N(CCCC(=O)NC3CCCC3)C2=O)cc1 | -4 | 0 | 13 | -0.1 | 5.1 | 2.3 | -0.5 | -2% | -3 | 1
CCOc1ccc2nc(NC(=O)CCn3cccc3)sc2c1 | 1 | -9 | -7 | 5.5 | 0.5 | -0.5 | 0.5 | 67% | -2 | -3
COc1ccc(CCNC(=O)c2cc3c(=O)n4ccccc4nc3n(C3CCCCC3)c2=N)cc1OC | 47 | -20* | -5.0* | 2.8* | 23* | 9.0 | -0.2 | . | -1 | 1
COc1ccccc1OCCCn1c(=O)oc2ccccc21 | -5 | . | . | . | 2.3 | . | 0.2 | 32% | -4 | -2
O=C(Nc1ccccc1C(=O)O)c1ccc(Br)c(S(=O)(=O)NCc2ccccc2)c1 | -9 | -24 | -21 | -2.9 | 0.7 | -0.6 | -0.3 | 2% | 12 | -6
COc1ccccc1N1CCN(C(=O)c2c(-c3c(Cl)cccc3Cl)noc2C)CC1 | 7 | . | . | . | 2.8 | . | -0.4 | -6%&-6% | -12 | -3
Cn1c(=O)oc2cc(S(=O)(=O)Nc3ccc4c(c3)OCCO4)ccc21 | -23 | . | . | . | ? | . | 0.5 | 8% | 12 | -2
O=C(CN1C(=O)CC(c2ccccc2)S(=O)(=O)c2ccccc21)N1CCOCC1 (stereo unspecified) | 11 | . | . | . | 1.7 | . | -1.3 | -5% | -6 | -1
COc1ccc(S(=O)(=O)N2CCOC23CCN(S(=O)(=O)c2ccc(F)cc2C)CC3)cc1 | 21 | -2 | -7 | 1.8 | 1.8 | 4.5 | . | 3% | 7 | .
C=CCn1c(SCc2csc(-c3ccc(C)cc3)n2)nnc1-c1ccccc1OC | 46 | . | . | . | -4.6 | . | 0.1 | 10% | -1 | 12

Limited to A1 inh, rRNA inh HTS OD600 and Calb FLC, for four of the compounds above:
molecule	A1 inh	rRNA inh HTS OD600	Calb FLC
COc1ccccc1OCCCn1c(=O)oc2ccccc21	0.2	.	-4
O=C(Nc1ccccc1C(=O)O)c1ccc(Br)c(S(=O)(=O)NCc2ccccc2)c1	-0.3	-21	12
COc1ccccc1N1CCN(C(=O)c2c(-c3c(Cl)cccc3Cl)noc2C)CC1	-0.4	.	-12
Cn1c(=O)oc2cc(S(=O)(=O)Nc3ccc4c(c3)OCCO4)ccc21	0.5	.	12

New compounds follow
SMILES | T cruzi inh | rRNA inh HTS | rRNA inh HTS OD600 | rRNA inh HTS RFP | RanGTP-Imp inh | AF4-AF9 inh | A1 inh | Vif A3G | Calb FLC | Beta cell apopt
COc1ccc(NC(=O)CSc2nnc3c4c(nc(-c5ccccc5)n23)CC(C)(C)OC4)cc1 | 24 | . | . | . | 0.4 | . | 2.5 | . | 6 | 3
COc1ccc2oc(C(=O)N3CCN(C(=O)c4ccco4)CC3)c(C)c2c1 | -4 | -4 | -14 | -1.7 | . | 1.0 | 0.8 | . | 1 | -6
O=C(NCc1ccc2c(c1)OCO2)C1CCN(c2ccc(S(=O)(=O)N3CCCC3)cc2)CC1 | 23 | -16 | -5 | 0.1 | 4.9 | -11 | -0.2 | -6%&-6% | -25 | 0
O=S1(=O)CC=C(CSc2nc3ccccc3[nH]2)C1 | -13 | . | . | . | 1.4 | . | -1.3 | 1% | -2 | -7
N#CC1(c2ccccc2)CCN(S(=O)(=O)c2ccc(OC(F)(F)F)cc2)CC1 | 35 | 6 | 1 | 7.9 | -2.5 | -0.6 | -0.4 | -5% | -11 | -1
COc1ccc(N/N=C(\C=N\O)C(=O)c2ccc(OC)cc2)cc1 | 5 | . | . | . | -0.3 | . | 0.4 | 4% | -15 | 19
COc1cc(/C(C)=N/NC(=O)CSc2nncn2C)ccc1OCc1ccccc1Cl | 9 | -4 | -4 | -1.8 | -0.7 | 0.6 | -0.3 | 10% | -6 | 6
CN(C(=O)c1ccc(S(=O)(=O)NC2CCCC2)cc1)C1CCCCC1 | -3 | . | . | . | 1.8 | . | 1.0 | 11%&-5% | -2 | 3
CCC(C)(C)NC(=O)c1sccc1Oc1ccc(F)cc1[N+](=O)[O-] | 12 | -10 | -13 | -4.0 | -0.3 | 9.6 | 0.2 | -4% | 58 | 5
CC1=C(C(=O)N2CCOCC2)C(c2ccsc2)C2=C(CCCC2=O)N1 (stereo unspecified) | 0 | 8 | 4 | 4.4 | -3.2 | . | 0.7 | 22% | 9 | -1
Cc1c(C(=O)O)oc2c1/C(=N\O)CC(C)(C)C2 | -17 | 9 | 2 | 0.9 | ? | -1.1 | 0.6 | 0% | -2 | -2
CCCc1ccc(OCCNC(C)=O)cc1 | 2 | 1 | -1 | 3.6 | -2.4 | 2.3 | 0.7 | 0% | 3 | -4
c1ccc(Cn2c(-c3ccccc3)c[n+]3c2SCCC3)cc1 | 19 | -45* | 4.8* | -0.8* | 7.1 | -5.6 | -0.4 | -12% | -34 | 14
Cc1onc(-c2ccccc2)c1C(=O)NCc1cccnc1 | -3 | . | . | . | 9.8 | . | 0.6 | 15% | 11 | -4
O=C(NCc1ccco1)/C(=C\c1cccs1)NC(=O)c1ccccc1 | -6 | 9 | 8 | 1.4 | -0.8 | 1.3 | 1.6 | 4% | -8 | 0
Cc1cc(OCCCCOc2ccc(C#N)cc2)ccc1[N+](=O)[O-] | 19 | 5 | 10 | -0.1 | -2.8 | 2.1 | 1.9 | ? | -7 | 4
CCOc1cccc(C=NNc2ccc(S(=O)(=O)Nc3ccccc3C(=O)O)cc2[N+](=O)[O-])c1O | . | 3 | 0 | 0.6 | . | 0.4 | -1.9 | 2% | . | -2
Nc1ncnc2c1cnn2-c1ccccc1 | -6 | . | . | . | 1.6 | . | -0.3 | 12% | 12 | -7
Cc1ccc(CNC(=O)NC2CCCCC2)cc1 | -12 | . | . | . | 2.4 | . | -1.6 | 1% | -35 | -5
CC(=O)c1ccc(OCCOc2ccc(C#N)cc2)cc1 | -7 | -2 | -6 | 0.6 | 2.3 | 3.2 | 1.3 | -11% | 1 | -10
COc1ccc(CNC(=O)c2ccc3ccccc3n2)cc1 | 2 | -12 | -11 | -1.2 | 0.1 | -4.6 | 1.3 | . | 2 | -19
CCOC(=O)c1sc(=NC(=O)c2cccc(Br)c2)n(C)c1C | -7 | 9 | 10 | 3.9 | 0.1 | -0.3 | -2.0 | -21% | -5 | 3
CCC(C)Sc1nnc(NS(=O)(=O)Cc2ccccc2)s1 (stereo unspecified) | -2 | -14 | -13 | -1.6 | 0.6 | 2.0 | 0.8 | . | 3 | 3
Cc1onc(-c2ccccc2)c1C(=O)Nc1ccc(NC(=O)c2c(-c3ccccc3)noc2C)cc1 | 6 | 0 | 8 | -0.9 | 0.3 | -0.6 | 0.7 | . | 0 | 4
COc1ccc(-c2oc3ccccc3c2C(=O)OCc2ccc(O)cc2)cc1 | -2 | 5 | 21 | 1.4 | 5.2 | -7.0 | 0.4 | . | 4 | 1
Cc1ccccc1CSc1nncn1N | 9 | . | . | . | -0.2 | . | -0.6 | 2% | -3 | -2
O=C(NC1CCCC1)C(=O)c1c[nH]c2ccccc12 | 0 | 0 | 4 | -3.9 | -2.5 | 0.9 | -1.4 | . | -1 | -2
COc1ccc2nc(N)sc2c1 | -6 | . | . | . | 2.8 | . | 0.5 | -2% | 11 | -2
COCCNc1oc(/C=C/c2ccccc2OC)nc1S(=O)(=O)c1ccccc1 | 12 | -4 | 0 | 2.5 | 4.0 | -3.6 | -1.8 | -6% | -18 | 8
O=C(CN1C(=O)NC2(CCCCC2)C1=O)Nc1ccc(N2CCOCC2)cc1 | -17 | . | . | . | 2.8 | . | -0.4 | 1% | -7 | 3
O=C(NC(=S)NCCN1CCOCC1)c1ccc(Cl)cc1Cl | 7 | . | . | . | 1.0 | . | -0.1 | 66% | 10 | .
CCCCNC(=S)N(CCO)Cc1cc2cc3c(cc2[nH]c1=O)OCCO3 | 7 | 3 | 4 | 4.7 | -2.7 | -4.1 | -0.2 | . | 2 | 3
CC(C)c1ccc(C(=O)NCCCc2ccccc2)cc1 | 19 | . | . | . | -0.4 | . | -2.5 | -8% | -38 | -3
O=C(c1ccc(S(=O)(=O)Nc2cccc(C(F)(F)F)c2)cc1)N1CCN(c2ccccc2O)CC1 | 5 | -8 | -46 | 2.1 | 1.2 | 1.0 | -0.2 | 1% | -4 | 1
CC1CCC2(CC1)NC(=O)N(CC(=O)Nc1ccccc1-c1ccccc1)C2=O (stereo unspecified) | 2 | -15 | -23 | -3.8 | -1.8 | -0.3 | 0.0 | 5% | 0 | .
COc1ccc(-c2cn(Cc3ccc(C(=O)NCc4ccc(C)cc4)cc3)c(C(C)N)n2)cc1 (stereo unspecified) | 42 | 2 | 3 | 11 | -0.7 | 12 | -1.4 | . | 7 | 10
CC(C)CC(NC(=O)OC(C)(C)C)c1cn([C@@H](Cc2ccc(O)cc2)C(=O)N2CCN(C(=O)OC(C)(C)C)CC2)nn1 (stereo partly specified) | 38 | 10 | 9 | -1.7 | 0.2 | -2.0 | 0.1 | . | 8 | 4
CCC(=O)Nc1c2c(nn1-c1ccc([N+](=O)[O-])cc1)CS(=O)(=O)C2 | -8 | 15 | 15 | 3.0 | 1.2 | -2.5 | -0.5 | -4% | -3 | -9
CN1N=C(c2ccc(F)c(F)c2)CSC1=NCc1ccccc1 | -2 | 6 | 13 | -7.0 | -1.3 | 2.9 | 1.0 | 3% | -16 | -6
NC[C@@H]1O[C@H](C23CC4CC(CC(C4)C2)C3)Cc2c1ccc(O)c2O | 48 | -55 | -74 | -16 | -0.4 | 47* | -1.3 | . | 101* | -4
Cc1cc(=O)oc2cc(OCC(=O)N3CCC(O)CC3)c(Cl)cc12 | -10 | -4 | -5 | -0.7 | -1.6 | -15 | -0.1 | -1% | 8 | 3
COc1ccc(S(=O)(=O)NNC(=O)Cc2csc(C)n2)cc1[N+](=O)[O-] | -16 | -2 | 7 | -0.3 | 1.7 | -3.2 | 0.0 | 14% | . | -4
CCOc1ccccc1NC(=S)N1CCN(c2cccc(C)c2C)CC1 | 24 | -17 | -5 | 2.0 | 0.3 | 2.7 | 0.4 | 24% | -7 | -8
CN(C)Cc1c(O)ccc2c(=O)c(-c3ccccc3Cl)c(C(F)(F)F)oc12 | 0 | -15 | -3 | -0.1 | 5.1 | 4.7 | 0.9 | 0% | -3 | -9

A few values from the entries so far.
RanGTP-Imp inh result of CCOc1ccccc1NC(=S)N1CCN(c2cccc(C)c2C)CC1 : 0.3
A1 inh result of Cc1cc(=O)oc2cc(OCC(=O)N3CCC(O)CC3)c(Cl)cc12 : -0.1
